VDR inhibitor: vitamin D3 receptor (human) inhibition | Potency, µM, for inactives: max response, negative = inhibition, actives largely listed as inhibitors | P11473 | hit rate 0.93% among 400,000 | VDR-SRC2-3 peptide fluorescence polarization, 2 h; active means well fitted inhibition curve with a large enough effect; inconclusive means small, poorly fitted or top-dose-only effect, or another doubt; inactive means no such curve, though single readings can be large or run the other way; further: series mostly up to about 120 µM
Target sequence (P11473 whole entry, looked up): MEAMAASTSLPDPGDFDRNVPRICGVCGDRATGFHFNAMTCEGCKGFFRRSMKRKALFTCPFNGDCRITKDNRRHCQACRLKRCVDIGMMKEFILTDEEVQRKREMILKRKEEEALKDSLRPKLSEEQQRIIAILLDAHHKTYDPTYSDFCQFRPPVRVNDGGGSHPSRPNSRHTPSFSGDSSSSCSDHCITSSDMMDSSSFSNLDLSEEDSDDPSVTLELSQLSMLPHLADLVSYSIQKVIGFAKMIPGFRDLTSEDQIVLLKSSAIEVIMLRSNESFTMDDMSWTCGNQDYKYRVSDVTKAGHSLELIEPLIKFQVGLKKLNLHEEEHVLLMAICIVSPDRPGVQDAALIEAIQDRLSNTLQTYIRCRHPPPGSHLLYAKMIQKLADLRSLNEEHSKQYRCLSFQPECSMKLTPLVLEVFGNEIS
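VDR–SRC2-3 interaction, FP format. Cmpds 23 nl via pintool, brief spin, 2 h ambient incubation.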
An asterisk follows results filed as active; ? = inconclusive; & = joins results of further samples. On the % scale 0 is the no-effect control and ±100 the full control effect; potency means the concentration at half of the fitted maximal effect.

The first five entries, ahead of the listing:
SMILES	VDR inhibitor
CCOC(=O)c1ccc(N2CCN(c3ccccc3F)CC2)c(NC(=O)Nc2ccc(Cl)c(Cl)c2)c1	6%
COc1ccc(C(=O)CSc2n[nH]c(-c3ccco3)n2)cc1	4%
Cc1cccnc1NC(=O)CCC(=O)c1cccs1	-6%
CCOc1ccc(NC(=O)Nc2nc3ccc(S(C)(=O)=O)cc3s2)cc1	-14%
CCc1ccccc1Nc1nc(N)nc(COC(=O)C2CCN(C(=O)c3ccc(F)cc3)CC2)n1	10%

Results, previewed entries included:
SMILES	VDR inhibitor
CCOC(=O)c1ccc(N2CCN(c3ccccc3F)CC2)c(NC(=O)Nc2ccc(Cl)c(Cl)c2)c1	6%
COc1ccc(C(=O)CSc2n[nH]c(-c3ccco3)n2)cc1	4%
Cc1cccnc1NC(=O)CCC(=O)c1cccs1	-6%
CCOc1ccc(NC(=O)Nc2nc3ccc(S(C)(=O)=O)cc3s2)cc1	-14%
CCc1ccccc1Nc1nc(N)nc(COC(=O)C2CCN(C(=O)c3ccc(F)cc3)CC2)n1	10%
O=C(NCc1ccccc1)c1ccc(NC(=O)C2CCCC2)cc1	-15%
Cc1ccc(N2C(=O)N(CC(=O)N3CCCc4ccccc43)C(=O)C2C)cc1 (stereo not drawn)	-6%
O=C(Nc1ccnn1C1CCN(Cc2ccccc2F)CC1)C1CCCC1	-9%
O=C(Nc1ccc2c(c1)N(C1CCCC1)C(=O)c1ccccc1S2)c1ccccc1F	14%
CCCNc1ncnc2c1c(-c1ccccc1)cn2-c1ccccc1	-7%
Cn1c(C(=O)N2CCN(Cc3ccc4c(c3)OCO4)CC2)cc2c(=O)n(C)c3ccccc3c21	3%
CN(Cc1nc(Cc2cccc(F)c2)no1)CC1COCCO1 (stereo not drawn)	7%
CC(NC(=O)NCCCn1ccnc1)(C(F)(F)F)C(F)(F)F	14%
CC(C)(C)n1nnnc1CN1CCN(C2CCCC2)CC1	-5%
Cc1ccc(C(=O)Nc2cc(=O)n(C)c(=O)n2C)cc1C	15%
NC(=O)CN1C(=O)C(=O)N(Cc2cccc(C(F)(F)F)c2)C1=O	12%
CCC(=O)n1nc(-c2ccco2)nc1SCc1ccccc1	-8%
CCCOc1cccc(C(=O)Nc2cccc3ncccc23)c1	11%
O=[N+]([O-])c1ccc(Cl)c(/C=N/NC(=S)Nc2ccccc2)c1	-2%
Cn1c(=O)c(C(=O)NCCc2ccc(Cl)cc2)c(O)c2ccccc21	17%
O=C(Nc1nnc(COc2ccc(Cl)cc2)s1)C1CCCO1 (stereo not drawn)	-9%
CC(=O)c1cn(-c2ccc(Cl)cc2)c(=O)[nH]c1=O	3%
CN(C)c1ccnc(NCc2ccccc2)c1C#N	?
COc1ccc(CN2CCC(C(=O)c3ccc(Cl)cc3)CC2)cc1	17%
O=C(CN1CCCCCCC1)N/N=C/c1ccc(F)c(F)c1	0%
Cc1ccc(NC(=S)N(C)C)cc1C	-16%
O=C(CCN1C(=O)c2ccccc2C1=O)Nc1ccc(F)cc1	21%
O=C(CC(O)(CC(=O)OCc1ccccc1)C(=O)OCc1ccccc1)OCc1ccccc1	14%
Nc1ccc(Cc2ccc([N+](=O)[O-])cc2)cc1	11%
O=S(Cc1ccc(Cl)cc1)CC(O)(c1ccccc1)c1ccccc1 (stereo not drawn)	16%
Cn1c(=O)oc2cc(S(=O)(=O)N3CCCC(C(=O)N4CCN(c5ccccc5F)CC4)C3)ccc21 (stereo not drawn)	-20%
CC(C)NC(=O)C1CCN(C2CCN(C(=O)C3=CCCC3)CC2)CC1	-1%
COC(=O)Nc1sc2c(c1C(=O)NCc1ccco1)CCCC2	7%
Cc1ccc(S(=O)(=O)N(C)CC(=O)N2CCN(Cc3ccc4c(c3)OCO4)CC2)cc1	-15%
NC(Cc1cc(I)c(Oc2cc(I)c(O)c(I)c2)c(I)c1)C(=O)O (stereo not drawn)	?
O=C(N/N=C/c1ccc(OC(=O)c2ccccc2)cc1)c1cccc(O)c1	-3%

Structures above containing an NH in an aromatic ring, in the order listed:
SMILES	VDR inhibitor
COc1ccc(C(=O)CSc2n[nH]c(-c3ccco3)n2)cc1	4%
CC(=O)c1cn(-c2ccc(Cl)cc2)c(=O)[nH]c1=O	3%

The list continues:
SMILES	VDR inhibitor
O=C(O)CCc1ccc(-c2ccc(Cl)cc2)n1NC(=O)c1ccc(O)cc1	-8%
COc1cc2ncc(-c3ccccc3)nc2cc1OC	-2%&0%
CC1CC(C)CN(c2cc(=O)n(Cc3ccc(F)cc3)c(=O)[nH]2)C1 (stereo not drawn)	-13%
COc1cc(CO)ccc1OCC(=O)Nc1ccc(Br)cc1	-1%
CCCOP(=O)(c1ccc(N(C)C)cc1)C(O)c1c(Cl)cccc1Cl (stereo not drawn)	-3%
O=C(Nc1ccccc1)[C@@]12C[C@@H]1/C(=N/O)c1ccccc1O2	-4%
CC(=O)c1cc(-c2ccccc2)n(CCC(=O)Nc2nc3c(C)cccc3s2)c1C	3%
Cc1ccc(NC(=O)CS(=O)(=O)c2nc(-c3ccc(C)cc3)cn2-c2ccc(C)cc2)cc1	-3%
COc1ccc(N2CCN(CC(=O)Nc3ccccc3SC)CC2)cc1	-2%
CCCCSCCCNC(=O)C1CCN(Cc2nc(-c3cccc(Br)c3)oc2C)CC1	-12%
Cc1ccc2sc(N(CCCN(C)C)C(=O)c3ccc(S(=O)(=O)N(C)Cc4ccccc4)cc3)nc2c1C	7%
O=C(CSCc1ccccc1)N1CCN(c2ccc(F)cc2)CC1	-6%
CN(Cc1ccccc1)C(=O)CN1C(=O)NC(C)(c2ccc(C(C)(C)C)cc2)C1=O (stereo not drawn)	4%
CN(C)CCCOC(=O)c1ccccc1Cl	-2%
COCCCNC(=O)C[C@H]1C[C@H](C(=O)N(C(C)C)C(C)C)[C@@]2(C)c3[nH]c4ccc(Cl)cc4c3CCN2C1=O	-20%
COc1ccc(C2Nc3ccccc3C(=O)N2c2ccc(C)cc2)cc1Cn1cc([N+](=O)[O-])cn1 (stereo not drawn)	8%
CCOC(=O)c1c(NC(=S)Nc2ccccc2)sc2c1CCCCC2	0%
Cc1ccc2[nH]c(O)c(N=NC(=O)c3ccc(NS(=O)(=O)c4cccs4)cc3)c2c1	4%
O=C(C1CCC1)N1CCc2cc(S(=O)(=O)Nc3ccc4c(c3)OCCO4)ccc21	12%
COc1ccc(-c2noc(C3CCCN(C(=O)c4ccc(C)cc4)C3)n2)cc1 (stereo not drawn)	0%
CNC(=O)CN1C(=O)NC2(CCc3ccccc32)C1=O (stereo not drawn)	-5%
Cc1ccc(NC(=O)COc2ccc3c(c2)CCC3)nc1	12%
O=C1CCC(C(=O)OCC(=O)N2N=C3/C(=C\c4ccccc4)CCCC3C2c2ccccc2)N1 (stereo not drawn)	-6%
COc1ccccc1N1CCN(C(CNS(=O)(=O)c2ccccc2)c2ccccc2)CC1 (stereo not drawn)	12%
Cc1ccc2nc(NCCCNC(=O)c3cnccn3)c(C#N)cc2c1	28%
CCOC(=O)c1c(S(=O)(=O)NCC(=O)Nc2cccc(CC)c2)c(C)n(C)c1C	14%
CC(C)C[C@@H]1CN=C(N)N1C[C@@H]1CCCN1C[C@H](C)N1C[C@@H](Cc2ccccc2)N(CCCC2CCCC2)C1=N	-1%
CCn1nc(-c2ccccc2)c(-c2ccccc2)c(C(=O)OCCOC)c1=O	4%
CC(=O)Nc1ccc(OCC(O)Cn2nc(C)c(Br)c2C)cc1 (stereo not drawn)	2%
CCc1ccc(NC(=O)CN2C(=O)CCSc3ccc(S(=O)(=O)N4CCCC4)cc32)cc1	4%
CC(=O)Nc1ccc(NC(=O)c2nc(S(=O)(=O)Cc3ccccc3)ncc2Cl)cc1	-22%
O=C(Nc1cc([N+](=O)[O-])ccc1Cl)c1ccc2c(c1)OCO2	-19%
COC(=O)c1ccccc1NC(=O)CN1CCN(c2ccccn2)CC1	8%
N#CCCn1c(=O)c(-c2ccc(Cl)cc2)nc2cnc(Oc3ccccc3)nc21	5%
Cc1ccccc1-c1nnc(CN2CCN(c3cc(Cl)ccc3C)CC2)o1	-4%
O=C(Nc1ccnc(-c2cccnc2)n1)c1cccs1	-28%
CC(=O)c1ccc(NC(=O)c2cc(C)no2)cc1	10%
CCOC(=O)N1CCN(C(=O)c2ccc(C)c(S(=O)(=O)N3CCCCC3)c2)CC1	10%
Cc1ccc(S(=O)(=O)N2CCC(C(=O)Nc3nnc(C4CCCC4)s3)CC2)cc1	-6%
Cn1c(=O)oc2cc(S(=O)(=O)N3CCC(C(=O)NCC4COc5ccccc5O4)CC3)ccc21 (stereo not drawn)	11%
Cc1c(NC(=O)C2CC(c3cccc(Br)c3)=NO2)c(=O)n(-c2ccccc2)n1C (stereo not drawn)	5%
CN(C)/C=N/c1[nH]ncc1C#N	9%
CCN(CC)C(=O)C1CC(=O)OC1(C)C (stereo not drawn)	-12%
CCOc1cc2c(cc1OCC)C(CC(=O)O)N(C(=O)Nc1ccc(Br)c(C)c1)CC2 (stereo not drawn)	8%
N=C1/C(=C\c2ccc(OC(=O)c3ccc(F)cc3)cc2)C(=O)N=C2SC(N3CCCC3)=NN12	?
Cc1cc(C)c(NC(=O)CSc2ccc(-c3sc(-c4ccccc4)nc3C)nn2)c(C)c1	-8%
COc1ccc(OCc2cccc(C(=O)NN)c2)cc1	-8%
CCOc1ccccc1C(=O)N(Cc1ccc(C)o1)C1CCS(=O)(=O)C1 (stereo not drawn)	?
COc1ccc(NC(=O)CN2C(=O)C(c3ccc(C)cc3)=NC23CCCCCC3)cc1Cl	8%
COC/C=C/C1=CC2=CC(=O)C(C)(OC(=O)c3cnc4ccccc4n3)C(=O)C2=CN1C1CC1 (stereo not drawn)	-15%
O=C(NC1CCCC1)C(c1cccs1)N(Cc1ccco1)C(=O)c1csnn1 (stereo not drawn)	1%
CCn1cc(C(=O)OCC(=O)Nc2cccc(C(C)=O)c2)c(=O)c2ccc(C)nc21	11%
C=CCNc1sc(C(=O)c2ccccc2)c(N)c1C#N	6%
Cc1ccc(Nc2nc(C)c3c(n2)CC(C)CC3=O)c(C)c1 (stereo not drawn)	2%
COc1cc(/C=N\NC(=O)CNC(=O)C(c2ccccc2)c2ccccc2)ccc1O	5%
O=c1[nH]c(C2CCCN(S(=O)(=O)c3ccccc3Cl)C2)nc2c1nnn2Cc1ccc(OC(F)(F)F)cc1 (stereo not drawn)	13%
COc1cc(OC)nc(NC(=O)NS(=O)(=O)c2ccc(F)cc2)n1	16%
Cc1ccsc1/C=N/NC(=O)CNC(=O)c1ccc(S(=O)(=O)N(C)C)cc1	6%
CCCNC(=O)c1ccc(C)c(NC(=O)C2=C(C)OCCS2)c1	-7%
Cc1nc2cc(NC(=O)NC3CC3)ccc2n1C	3%

The last three records of the section above are carried over, then new ones follow:
SMILES	VDR inhibitor
Cc1ccsc1/C=N/NC(=O)CNC(=O)c1ccc(S(=O)(=O)N(C)C)cc1	6%
CCCNC(=O)c1ccc(C)c(NC(=O)C2=C(C)OCCS2)c1	-7%
Cc1nc2cc(NC(=O)NC3CC3)ccc2n1C	3%
CC(C)C(OC(=O)CN1C(=O)COc2ccccc21)C(=O)NC1CCCC1 (stereo not drawn)	-4%
COc1cccc(N=C2SC(C(=O)Nc3ccccc3F)CC(=O)N2C)c1 (stereo not drawn)	-6%
CN(CCNC(=O)C1CC(=O)N(C2CCCC2)C1)Cc1ccccc1 (stereo not drawn)	5%
C=CCOc1ccc(/C=C/C(=O)OCC(=O)NCCC2=CCCCC2)cc1	-2%
CC(=O)Nc1cccc(C(=O)NNC(=O)c2ccc(-n3cnnn3)cc2)c1	-3%
O=C(COc1ccc(S(=O)(=O)N2CCOCC2)cc1)Nc1ccc(Cl)c(C(F)(F)F)c1	0%
CC1Cc2ccccc2N1C(=O)c1cnc2sccn2c1=O (stereo not drawn)	17%
CNC(=O)CSc1nnc(-c2ccco2)n1-c1cccc(OC)c1	19%
CCn1ccc(C(=O)Nc2ccc(Cl)cn2)n1	-3%
CC(=O)Cn1c2ccccc2n2nc(CCC(=O)O)c(=O)nc12	1%
CC1=C(C(=O)OCc2ccccc2)C(c2ccc(C)o2)C2=C(CCCC2=O)N1 (stereo not drawn)	-1%
Cc1cccc(NC(=O)c2cc3c(=O)n4ccccc4nc3n2C)c1C	12%
Cc1nnc(Nc2ccc(S(N)(=O)=O)cc2)c2ccccc12	-7%
CCOC(=O)C1=C(COC(=O)Cc2ccccc2F)NC(=O)NC1C (stereo not drawn)	10%
C=CCn1c(=O)n(C)c2c(=O)n(C)c(=O)n(C)c21	-1%
O=C(O)COCC(=O)NCc1nc(-c2ccc(C(F)(F)F)cc2)no1	3%
O=C(c1ccccc1F)N1CCc2ccccc21	9%
Cc1ccc(NC(=O)COc2ccc(-n3cnnn3)cc2)cc1C	3%
Cc1cccc2cc(C(c3nnnn3CC3CCCO3)N3CCc4ccccc4C3)c(=O)[nH]c12 (stereo not drawn)	-22%
O=C(OCc1ccccc1)C1CCCN1C(=O)c1cccs1 (stereo not drawn)	18%

6 records picked at random from the list so far:
SMILES	VDR inhibitor
O=C(O)COCC(=O)NCc1nc(-c2ccc(C(F)(F)F)cc2)no1	3%
Cc1ccc(NC(=O)COc2ccc(-n3cnnn3)cc2)cc1C	3%
Cc1cccc2cc(C(c3nnnn3CC3CCCO3)N3CCc4ccccc4C3)c(=O)[nH]c12 (stereo not drawn)	-22%
Cc1nnc(Nc2ccc(S(N)(=O)=O)cc2)c2ccccc12	-7%
CCOC(=O)C1=C(COC(=O)Cc2ccccc2F)NC(=O)NC1C (stereo not drawn)	10%
C=CCn1c(=O)n(C)c2c(=O)n(C)c(=O)n(C)c21	-1%

Not all compounds are listed (hit frequency here may not be typical).
